NPYLR7 ag = agonists of mosquito NPYLR7 receptor, primary screen, cell-based, Aedes aegypti, calcium fluorescence, mosquito biting behavior; HEK293T NPYLR7/Galpha15, GCaMP6s calcium fluorescence; 270,000 compounds, 0.15% hits; activation, % at 10 µM; Aedes aegypti neuropeptide Y-like receptor 7 (NPYLR7); in the data active means activation above about 40%;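 further: 0% = vehicle and 100% = reference agonist at the receptor; some compounds past the cut are filed as inactive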
NPYLR7 ag max-min = also measured in NPYLR7 ag; calls as there; activation, %; measured here: Max-Min RFU normalised activation; some inactives read as strong as hits;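 span of the calcium signal over five minutes; 0% = vehicle and 100% = native peptide agonist; compound fluorescence can raise it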
The depositor's hits bear a star; & = joins results of further samples. The list is partial, so the mix of outcomes need not match the whole.

Screening COc1cccc(COc2coc(CN3CCCN(C(=O)CO[C@@H]4C[C@H](C)CC[C@H]4C(C)C)CC3)cc2=O)c1 returned NPYLR7 ag 13.4 and NPYLR7 ag max-min 3.5.
COc1cc(OC)cc(C(=O)N2CCN(c3ccc(Cl)cc3C)C(=O)C2C)c1 (stereo not drawn) was read as NPYLR7 ag -2.9 and NPYLR7 ag max-min 4.0.
Screening O=c1ccc(-c2ccco2)nn1Cc1ccc(F)cc1 returned NPYLR7 ag 10.3 and NPYLR7 ag max-min 2.7.
Screening CCN(CC)S(=O)(=O)c1cccc(NC(=O)c2cc(C3CC3)nc3ccccc23)c1 returned NPYLR7 ag 1.5 and NPYLR7 ag max-min 1.8.
For C[N+]1(Cc2ccco2)Cc2ccccc2C1 the results were NPYLR7 ag 16.6 and NPYLR7 ag max-min 13.4.
`C=CCOc1cccc(/C=N\NC(=O)C(=O)Nc2ccccc2OC)c1` gave NPYLR7 ag -2.9 and NPYLR7 ag max-min -3.6.
Screening CC1CCC(N(C)C(=O)C2CCCN(c3ccccn3)C2)CC1 (stereo not drawn) returned NPYLR7 ag 1.8 and NPYLR7 ag max-min 0.1.
`CC1CNC(=O)CCN1C(=O)c1cn2cc(Cl)ccc2n1` (stereo not drawn) gave NPYLR7 ag 6.8 and NPYLR7 ag max-min 4.2.
`CCCNC(=O)Cn1nnc(-c2ccc(Cl)cc2)n1` gave NPYLR7 ag -3.2 and NPYLR7 ag max-min -5.0.
`O=[N+]([O-])c1ncc(Br)cc1Nc1ccccc1` gave NPYLR7 ag -1.2 and NPYLR7 ag max-min -1.7.
Screening CC(C)C(=O)c1ccc(-c2ccccc2CN2CCOCC2)s1 returned NPYLR7 ag 8.4 and NPYLR7 ag max-min 5.8.
For CC(=O)NCCC1CCCCN1C(=O)c1cn(Cc2ccccc2F)nn1 (stereo not drawn) the results were NPYLR7 ag 2.8 and NPYLR7 ag max-min -0.2.
Screening COc1ccc(C(=O)N2CC(c3ccncc3)C2)c(OC)c1OC returned NPYLR7 ag -0.4 and NPYLR7 ag max-min -1.1.
Screening Cc1ccc(Oc2ncccc2CNC(=O)c2ccc3nccnc3c2)cn1 returned NPYLR7 ag 3.7 and NPYLR7 ag max-min 3.0.
Cc1ccccc1NC(=O)CCNC(=O)c1ccc2cccnc2n1 was read as NPYLR7 ag -0.5 and NPYLR7 ag max-min 0.3.
CC(C)OCC(O)CNc1ccc(-n2nc(OCc3ccc(F)cc3)nc2-c2ccccc2F)cc1 (stereo not drawn) was read as NPYLR7 ag -1.8 and NPYLR7 ag max-min 3.8.
O=C(N=C1N=C2C=CC(Cl)=CN2Cc2ccccc21)c1ccccn1 was read as NPYLR7 ag -14.1 and NPYLR7 ag max-min -17.9.
Screening CCc1cc(CN(C)C(=O)CN2C(=O)NC(=O)C2(C)C)on1 returned NPYLR7 ag 5.0 and NPYLR7 ag max-min 3.0.
CCOC(=O)C1(Cc2ccccc2)CCN(Cc2ccc(C3CCCCO3)s2)CC1 (stereo not drawn) was read as NPYLR7 ag 25.3 and NPYLR7 ag max-min 26.6.
`CSc1ncccc1C(=O)N1CCN(CC(OCc2cccc(C)c2)c2ccc(Cl)cc2)CC1` (stereo not drawn) gave NPYLR7 ag -1.9 and NPYLR7 ag max-min 3.9.

Overlap with the part before: two entries, then new ones.
CCOC(=O)C1(Cc2ccccc2)CCN(Cc2ccc(C3CCCCO3)s2)CC1 (stereo not drawn) was read as NPYLR7 ag 25.3 and NPYLR7 ag max-min 26.6.
`CSc1ncccc1C(=O)N1CCN(CC(OCc2cccc(C)c2)c2ccc(Cl)cc2)CC1` (stereo not drawn) gave NPYLR7 ag -1.9 and NPYLR7 ag max-min 3.9.
For CCC(C(=O)N1CCN(c2nccc(-c3cc(OC)c(OC)c(OC)c3)n2)CC1)c1ccccc1 (stereo not drawn) the results were NPYLR7 ag 6.2 and NPYLR7 ag max-min -3.4.
Cc1cccc(NC(=O)N2CCOCC(CN(C)C)C2)c1C (stereo not drawn) was read as NPYLR7 ag 8.5 and NPYLR7 ag max-min 4.9.
For CC(C)c1ccc(Cc2nnc(NC3CCCC3)[nH]c2=O)cc1 the results were NPYLR7 ag 12.1 and NPYLR7 ag max-min 7.3.
For COc1cccc(OC)c1OCc1nc(C(=O)N2CCCCC2)cs1 the results were NPYLR7 ag 22.6 and NPYLR7 ag max-min 18.2.
Screening CCC(CC)C(CNC(=O)NCc1ccc(Cl)cc1)N1CCOCC1 (stereo not drawn) returned NPYLR7 ag 3.7 and NPYLR7 ag max-min 1.8.
Cc1ccc(CN(CCCO)C(=O)c2ccc3ncsc3c2)s1 was read as NPYLR7 ag -2.2 and NPYLR7 ag max-min -3.5.
For CN(C(=O)Cn1nc(C2CC2)c2cnn(-c3cccc(Cl)c3)c2c1=O)c1ccccc1 the results were NPYLR7 ag -3.0 and NPYLR7 ag max-min -3.9.
`CC(C)c1ocnc1C(=O)Nc1cc(N2CCCS2(=O)=O)ccc1Cl` gave NPYLR7 ag 6.3 and NPYLR7 ag max-min 5.4.
For Cc1ccccc1N1CCN(C2CCCN(C(=O)C3=CCCC3)C2)CC1 (stereo not drawn) the results were NPYLR7 ag 1.4 and NPYLR7 ag max-min -2.5.
Screening Cc1ccccc1Cn1cccc(C(=O)N2CCCc3ccccc32)c1=O returned NPYLR7 ag 12.0 and NPYLR7 ag max-min 6.5.
CCCc1c(C)nn(-c2ccc(C(=O)NC3CCN(C(=O)OCC)CC3)cc2)c1C was read as NPYLR7 ag -7.8 and NPYLR7 ag max-min -14.7.
O=C1C(=Cc2ccccn2)SC(=S)N1C1CC1 was read as NPYLR7 ag 4.2 and NPYLR7 ag max-min 5.7.
[O-]/[N+](=C/c1ccccc1)C/C(=N\O)c1ccccc1 was read as NPYLR7 ag -7.7 and NPYLR7 ag max-min -15.6.
Screening CNC(=O)CN1c2ccccc2C(=O)N(C)C1c1ccc(-c2ccc(F)cc2)o1 (stereo not drawn) returned NPYLR7 ag 4.2 and NPYLR7 ag max-min -0.5.
CCOCCCn1c(SCc2cc(OC)cc(OC)c2)nc2cc(S(=O)(=O)N3CCCC(C)C3)ccc21 (stereo not drawn) was read as NPYLR7 ag 5.4 and NPYLR7 ag max-min 2.6.
Cc1ccc(C(=O)N2CC(C)OC(C)C2)cn1 (stereo not drawn) was read as NPYLR7 ag 5.1 and NPYLR7 ag max-min -1.0.
CN(Cc1n[nH]c2c1CCC2)S(=O)(=O)NCc1ccccc1 was read as NPYLR7 ag 1.2 and NPYLR7 ag max-min 14.2.
Screening CCCCCCC(=O)Nc1nnc(SCc2cccc([N+](=O)[O-])c2)s1 returned NPYLR7 ag 35.7 and NPYLR7 ag max-min 33.4.
Screening CCOc1ccc(C(=O)N2CCN(c3ccc(-n4nc(C)c(C)c4C)nn3)CC2)cc1 returned NPYLR7 ag -6.5 and NPYLR7 ag max-min -11.0.
Screening CC1=CC2=NC(C(F)(F)F)(C(F)(F)F)N=C(C)N2C=C1 returned NPYLR7 ag 3.1 and NPYLR7 ag max-min 1.2.

5 compounds picked at random from the list so far:
[O-]/[N+](=C/c1ccccc1)C/C(=N\O)c1ccccc1 was read as NPYLR7 ag -7.7 and NPYLR7 ag max-min -15.6.
Screening CCOc1ccc(C(=O)N2CCN(c3ccc(-n4nc(C)c(C)c4C)nn3)CC2)cc1 returned NPYLR7 ag -6.5 and NPYLR7 ag max-min -11.0.
Cc1ccc(C(=O)N2CC(C)OC(C)C2)cn1 (stereo not drawn) was read as NPYLR7 ag 5.1 and NPYLR7 ag max-min -1.0.
For COc1cccc(OC)c1OCc1nc(C(=O)N2CCCCC2)cs1 the results were NPYLR7 ag 22.6 and NPYLR7 ag max-min 18.2.
Cc1cccc(NC(=O)N2CCOCC(CN(C)C)C2)c1C (stereo not drawn) was read as NPYLR7 ag 8.5 and NPYLR7 ag max-min 4.9.

Next structures.
CC(C)(C)C(=O)NCC(=O)N1CCCCC1Cc1ccccc1 (stereo not drawn) was read as NPYLR7 ag 13.6 and NPYLR7 ag max-min 17.8.
Cc1ccc2c(c1)CCCN2S(=O)(=O)c1csc(C(=O)Nc2cc(C)on2)c1 was read as NPYLR7 ag -0.3 and NPYLR7 ag max-min -2.8.
For COCCCN(Cc1csc(COc2ccc(Cl)cc2)n1)C(=O)C1CC1 the results were NPYLR7 ag 14.8 and NPYLR7 ag max-min 10.4.
Screening CN(Cc1cnc2c(S(C)(=O)=O)cnn2c1)C1CCCc2ccccc21 (stereo not drawn) returned NPYLR7 ag -0.3 and NPYLR7 ag max-min -8.1.
Screening CCOC(=O)c1c[nH]cc(C)c1=O returned NPYLR7 ag 0.3 and NPYLR7 ag max-min 1.5.
`CCCCCN(Cc1cccn1Cc1cccc(Cl)c1)C(=O)Nc1ccccc1F` gave NPYLR7 ag 15.9 and NPYLR7 ag max-min 23.8.
CCOCc1ccccc1CNC(=O)c1cc2c(c(S(N)(=O)=O)c1)CCCC2 was read as NPYLR7 ag 6.8 and NPYLR7 ag max-min 4.0.
Screening CSc1nnc(Cn2nnnc2C(C)(C)C)s1 returned NPYLR7 ag 5.7 and NPYLR7 ag max-min -5.9.
Cc1nn(C(=O)CCc2cscn2)c(N)c1CC(C)C was read as NPYLR7 ag -2.2 and NPYLR7 ag max-min -1.6.
`CC(C)N1CCC(N2CCN(Cc3ccc(-n4cccn4)cc3)CC2CCO)CC1` (stereo not drawn) gave NPYLR7 ag -5.7 and NPYLR7 ag max-min -17.0.
O=C(NN=Cc1ccc(O)cc1)c1cc(-c2cc(Cl)cc(Cl)c2)n[nH]1 was read as NPYLR7 ag 3.9 and NPYLR7 ag max-min 9.1.
`Cc1c(-c2nc3ccc(Br)cc3c(=O)[nH]2)oc2ccccc12` gave NPYLR7 ag 4.5 and NPYLR7 ag max-min 2.8.
`O=C(Nc1cc(-c2ccccc2)nn1-c1ccccc1Cl)c1cccc(C(F)(F)F)c1` gave NPYLR7 ag 7.4 and NPYLR7 ag max-min 0.9.
Screening CC(=O)NC1(C(F)(F)F)C(=O)Nc2c1c(=O)[nH]c(=O)n2-c1ccccc1 (stereo not drawn) returned NPYLR7 ag -9.2 and NPYLR7 ag max-min -17.9.
Screening Oc1ccccc1CN1CCCn2cccc2C1c1ccccc1F (stereo not drawn) returned NPYLR7 ag 14.0 and NPYLR7 ag max-min 11.7.
`COCCN(CC(=O)N(Cc1cccn1Cc1ccc(Br)cc1)C1CCCCC1)C(=O)c1ccc(F)cc1` gave NPYLR7 ag 3.4 and NPYLR7 ag max-min 5.9.
`CCn1nc(C(=O)O)c(=O)c2cc3c(cc21)OCO3` gave NPYLR7 ag 1.9&-1.2&4.1 and NPYLR7 ag max-min -3.8&1.1&-4.5.
`CCOc1cc(C)c(Cl)cc1S(=O)(=O)Nc1ccccc1C(=O)O` gave NPYLR7 ag 2.6 and NPYLR7 ag max-min 0.7.
COc1cc(C(=O)N2CCN(c3ncccc3C(=O)NCC3CCCO3)CC2)cc(Cl)n1 (stereo not drawn) was read as NPYLR7 ag -3.1 and NPYLR7 ag max-min 7.2.
For CCOCCn1c(=NC(=O)c2ccc(Br)s2)sc2cc(NC(C)=O)ccc21 the results were NPYLR7 ag 1.7 and NPYLR7 ag max-min -1.4.
`Cc1ccc(C#N)c(S(=O)(=O)N2CCN(C(c3ccccc3)c3ccc(Cl)cc3)CC2)c1` (stereo not drawn) gave NPYLR7 ag 7.5 and NPYLR7 ag max-min 7.6.
Screening Cc1ccc(C(=O)OC2CCS(=O)(=O)C2)cc1Br (stereo not drawn) returned NPYLR7 ag 2.3 and NPYLR7 ag max-min 0.2.
For CCOCCCNC(=O)c1cc(NC(=O)c2ccc(Br)cc2)ccc1N1CCc2ccccc2C1 the results were NPYLR7 ag 1.1 and NPYLR7 ag max-min -5.3.
For O=C(NCC(c1ccccc1)N1CCCCCC1)c1ncn[nH]1 (stereo not drawn) the results were NPYLR7 ag -1.5 and NPYLR7 ag max-min -6.1.
CC(C)c1ccc(NC(=O)Cn2ccn3nc(-c4ccccc4)cc3c2=O)cc1 was read as NPYLR7 ag 15.7 and NPYLR7 ag max-min 12.2.
CN(CCOc1ccc(Cl)cc1)C(=O)Nc1cccnc1 was read as NPYLR7 ag 7.9 and NPYLR7 ag max-min 5.0.
CCCN(C)c1ccc(C(=O)N2CCCCC2CCn2cccn2)cn1 (stereo not drawn) was read as NPYLR7 ag 10.3 and NPYLR7 ag max-min 6.6.
`Cc1cc2nc(SCCO)nc(C)c2cc1C` gave NPYLR7 ag 2.4 and NPYLR7 ag max-min 1.8.
For CC1CC(=O)C2C=Nc3ccccc3N=C2C1 (stereo not drawn) the results were NPYLR7 ag -2.0 and NPYLR7 ag max-min -5.2.
CCSc1nnc(NC(=O)c2c(-c3ccccc3Cl)noc2C)s1 was read as NPYLR7 ag 1.6 and NPYLR7 ag max-min -0.7.
CN(C)Cc1cc(-c2nccn2CCc2cccnc2)ccc1O was read as NPYLR7 ag 4.3 and NPYLR7 ag max-min -29.7.
COc1ccc(C)cc1-n1nnnc1SCCC(N)=O was read as NPYLR7 ag 5.7 and NPYLR7 ag max-min 2.4.
For CCOC1CC(NC(=O)C(C)NC(=O)c2ccoc2)C12CCC2 (stereo not drawn) the results were NPYLR7 ag 2.1 and NPYLR7 ag max-min 2.2.
`COCc1cc(C)nc(N/N=C\c2cc(N=Nc3ccc([N+](=O)[O-])cc3)ccc2O)c1C#N` gave NPYLR7 ag -11.3 and NPYLR7 ag max-min -21.6.
For Cc1c(Br)c([N+](=O)[O-])nn1CC(=O)Nc1sc2c(c1C(N)=O)CCCC2 the results were NPYLR7 ag -0.4 and NPYLR7 ag max-min -6.6.
`COCCNc1nc(NCc2cc(-c3ccc(OC)cc3)no2)c2sccc2n1` gave NPYLR7 ag 15.1 and NPYLR7 ag max-min 10.6.
`COc1ccc(S(=O)(=O)N2CCN(c3cc(Cl)ccc3Cl)CC2)cc1OC` gave NPYLR7 ag -0.8 and NPYLR7 ag max-min -4.2.
`CC(C)CC(NC(=O)c1cnn2c1CCCC2)c1ncnn1C` (stereo not drawn) gave NPYLR7 ag -1.1 and NPYLR7 ag max-min -3.2.

Screening data: PubChem, Fisher Drug Discovery Resource Center
